BmaI1: BmaI1 acyl-homoserine lactone synthase inhibition – biochemical, fluorescence intensity, with counterscreen (AID 720554); BmaI1 enzyme assay, fluorescence intensity; hits give high values; test concentration not given here; a few actives read low; strong numbers were not always called active; inhibition, %; hit rate 0.4% among 12,000;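 active = both replicates within 2 robust z-scores of the inhibited control and a quiet counterscreen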;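 note: 0% = uninhibited enzyme and 100% = inhibited control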
BmaI1 counterscreen: further read-out of BmaI1, marked with its call; inhibition, %; measured here: counterscreen; design of the counterscreen not given here;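 first of two replicates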
The depositor's hits bear a star. Only part of the results is shown. The share of hits here may be higher or lower than overall.

SMILES | BmaI1 | BmaI1 counterscreen
CC(C)N1CCC(=O)NC1=O | -2.0 | 0.5
Cn1cccc1C(=O)NC(=O)CSc1cccc[n+]1[O-] | 16.5 | 9.0
COc1ccc(C2NS(=O)(=O)N=C3CCCN32)c(OC)c1 (centres undefined) | 19.5 | 12.5
C=C1C[C@@H]2[C@H](CC[C@]3(C)C(=O)CC[C@@H]23)[C@@]2(C)C=CC(=O)C=C12 | 7.5 | 0.5
C=CCn1c(SCC)nnc1-c1cccc(C)c1 | 8.5 | 3.0
COC(=O)c1ccc(OCC(O)CNCC2CCCO2)c(OC)c1 (centres undefined) | 6.0 | 1.5
CC=C1[C@H]2C=C(C)C[C@]1(N)c1ccc(=O)[nH]c1C2 | 6.0 | 13.5
Cc1ccnc2nc(C(=O)OCC(=O)Nc3ccccc3)nn12 | -2.0 | -4.0
NC(=O)C1CCN(Cc2nc3cc(C(F)(F)F)ccc3c(=O)[nH]2)CC1 | 11.0 | 3.0
COc1cc2c(cc1NC(=O)C(C)Sc1nncn1C)oc1ccccc12 (centres undefined) | 16.5 | -6.5
COC(=O)C(C)Sc1nc2ccccc2c(=O)n1-c1ccccc1 (centres undefined) | 14.0 | 11.5
COC(=O)c1ccc(COC(=O)c2cc(S(=O)(=O)N(C)C)ccc2N2CCCC2)o1 | 6.5 | 3.0
O=C(CSc1nc2cc(Cl)ccc2c(=O)n1Cc1ccccc1)N1CCOCC1 | -0.5 | -7.5
NS(=O)(=O)c1ccc(NC(=O)c2cn(-c3ccccc3)nc2-c2cccs2)cc1 | 5.5 | 3.0
COc1ccc(C(=O)OCc2ccccc2C(F)(F)F)c(O)c1 | -7.0 | -1.5

Record cards, from the list above. Order of screens: BmaI1	BmaI1 counterscreen
NS(=O)(=O)c1ccc(NC(=O)c2cn(-c3ccccc3)nc2-c2cccs2)cc1 is entered as 5.5	3.0
COc1cc2c(cc1NC(=O)C(C)Sc1nncn1C)oc1ccccc12 (centres undefined) is entered as 16.5	-6.5
COC(=O)C(C)Sc1nc2ccccc2c(=O)n1-c1ccccc1 (centres undefined) is entered as 14.0	11.5
Cn1cccc1C(=O)NC(=O)CSc1cccc[n+]1[O-] is entered as 16.5	9.0
CC=C1[C@H]2C=C(C)C[C@]1(N)c1ccc(=O)[nH]c1C2 is entered as 6.0	13.5

(more compounds)
SMILES | BmaI1 | BmaI1 counterscreen
Cc1cc(P(=N)(N2CCOCC2)N2CCOCC2)c(C)n1-c1ccc(I)cc1 | 7.0 | 9.0
COc1ccc(Cn2c(N)c(S(=O)(=O)c3ccccc3)c3nc(C#N)c(C#N)nc32)cc1 | 3.5 | 7.5
C/C(N)=C(/C#N)C(=O)CSc1nc2ccccc2n1CC(C)C | 10.5 | 4.0
Cc1cc(C(=O)CSc2nccn2Cc2ccccc2)c(C)n1-c1ncn[nH]1 | 14.5 | -0.5
O=C(Nc1ccc(-n2cnnn2)cc1)c1ccccc1C(F)(F)F | 3.5 | -2.5
Cc1ccc2c(COC(=O)c3ccccc3NCc3ccco3)cc(=O)oc2c1C | 10.0 | 1.0
Cc1c(CN2CC=C(c3ccccc3)CC2)c(=O)n(-c2ccccc2)n1C | 9.0 | -2.5
CC(C)CNC(=O)c1nc(-c2ccccc2)n(-c2ccccc2)n1 | -5.0 | -6.5
CN(C(=O)CN1C(=O)C2CC=CCC2C1=O)C1CCS(=O)(=O)C1 (centres undefined) | -8.5 | -5.0
Cc1[nH]c(=O)c(C#N)c(C)c1CCC(=O)N1CCN(S(=O)(=O)c2ccc(Cl)s2)CC1 | 2.0 | -2.0
CCCN(CC(=O)Nc1ccc(S(N)(=O)=O)cc1)C(C)C(=O)Nc1cccc(Cl)c1 (centres undefined) | 5.5 | 3.0
CN(CC(=O)N=c1sccn1C)S(=O)(=O)c1ccc(Cl)cc1 | 8.5 | 6.5
CC(COc1ccccc1)N(CCCl)Cc1ccccc1 (centres undefined) | 12.0 | 18.5
CC1Cc2ccccc2N1S(=O)(=O)c1cccc(C(=O)C(C#N)c2ccccn2)c1 (centres undefined) | -3.0 | -17.5
N#CC(C#N)=C1C=C2C=C(N3CCc4ccccc4C3)CCC2CC1 (centres undefined) | 9.0 | 1.5

Structures shown so far that have two or more sulfur atoms, in the order listed:
SMILES | BmaI1 | BmaI1 counterscreen
NS(=O)(=O)c1ccc(NC(=O)c2cn(-c3ccccc3)nc2-c2cccs2)cc1 | 5.5 | 3.0
Cc1[nH]c(=O)c(C#N)c(C)c1CCC(=O)N1CCN(S(=O)(=O)c2ccc(Cl)s2)CC1 | 2.0 | -2.0
CN(CC(=O)N=c1sccn1C)S(=O)(=O)c1ccc(Cl)cc1 | 8.5 | 6.5

Additional entries
SMILES | BmaI1 | BmaI1 counterscreen
CC(=O)N1CCN(CCN2C(C)=CC(=C(C#N)C#N)C=C2C)CC1 | 10.5 | -2.5
N#Cc1cc(C(=O)c2ccccc2O)cn2c(=O)c3ccccc3nc12 | 41.0 | 52.5
Cc1ccc(Cn2c(=O)c3ccccc3n3c(SCC(N)=O)nnc23)cc1 | 11.0 | 3.0
COc1ccc(C(=O)OCc2c(C)noc2C)cc1S(=O)(=O)NCc1ccc(Cl)cc1 | 7.5 | 6.0
C=CCNC(=O)c1ccc(-c2ccccc2)cc1 | 12.5 | 1.5
COc1ccc(C(=O)COC(=O)CCn2c(C)csc2=O)c(OC)c1 | 19.5 | 6.0
CCN(CC)S(=O)(=O)c1ccc(NC(=O)CSc2nncn2-c2ccccc2)cc1 | 12.5 | 8.0
COc1ccc(CNC(=O)CN(C)Cc2ccccc2F)cc1OC | 1.5 | -2.5
O=C(CN1CSCC1=O)Nc1cc(C(F)(F)F)ccc1NC1CCCCC1 | 15.5 | -1.0
CCS(=O)(=O)c1ccc2oc(C)nc2c1 | 6.5 | -6.5
Cc1nnc(SCC(=O)Nc2ccccc2S(=O)(=O)N(C)C2CCCCC2)n1-c1ccccc1 | 23.5 | 3.5
COc1cc2c(cc1OC)C1(NCC2)C(=O)Nc2ccccc21 (centres undefined) | -8.0 | 1.5
CC1CN(S(=O)(=O)c2cccc(C(=O)NCCO)c2)CC(C)O1 (centres undefined) | 6.5 | 3.5
N#Cc1ccccc1OC1CCOC1=O (centres undefined) | 2.0 | -3.0
O=C(N/N=C/c1cccc(O)c1)c1ccc(-n2cnnn2)cc1 | -0.5 | 1.5
N#C/C(=C\c1cn(-c2ccccc2)nc1-c1ccc2c(c1)OCCO2)C(=O)Nc1nccs1 | 13.0 | 12.5
CSc1ncccc1C(=O)Nc1ccccc1N1CCOCC1 | 11.0 | 10.5
CC(C)CC(NC(=O)C(COC(C)(C)C)NC(=O)C(Cc1ccc(O)cc1)NC(=O)C(CO)NC(=O)C(Cc1c[nH]c2ccccc12)NC(=O)C(Cc1cnc[nH]1)NC(=O)C1CCC(=O)N1)C(=O)N[C@@H](CCCN=C(N)N)C(=O)N1CCCC1C(=O)NNC(N)=O (some centres undefined) | 7.0 | 17.0
Cc1ccccc1OCC(=O)N(C)Cc1c(C)nn(C2CCS(=O)(=O)C2)c1C (centres undefined) | 17.5 | 0.5
O=C(c1cc(=O)[nH]c2ccccc12)N1CCc2ccccc2C1 | 12.0 | 6.5
CC(C)C(NS(=O)(=O)c1ccc2c(c1)OCCCO2)C(=O)O (centres undefined) | -1.0 | -6.0
Cn1nnnc1SCC(=O)N1c2ccccc2Sc2ccccc21 | 14.5 | 5.5
CC1(C)Cc2cccc(Oc3ncnc4sccc34)c2O1 | -1.0 | -6.5
CC1=C/C(=N\Nc2nc(C)cc(=O)[nH]2)CC(C)(C)C1 | 10.5 | 0.0
Cc1cc(C(=O)NN2C(=O)CSC2c2ccc(-n3ccnc3)cc2)c(C)o1 (centres undefined) | 16.0 | 34.5
CCn1c(=O)c(=O)[nH]c2cc(C(=O)NCCSCc3ccco3)ccc21 | 18.0 | 6.0
S=c1nc(-c2ccccc2)n(CCCn2ccnc2)c2c1CCCC2 | 0.5 | 3.5
CCC(=O)OCC(=O)[C@@]1(OC(=O)CC)[C@@H](C)C[C@H]2[C@@H]3CCC4=CC(=O)C=C[C@]4(C)[C@@]3(Cl)[C@@H](O)C[C@@]21C | 5.5 | 11.0
O=C(OCN1C(=O)c2ccccc2C1=O)c1ccc(N2CCCC2=O)cc1 | 9.0 | 2.5
N#CC(C(=O)Cc1cccs1)c1ccccn1 (centres undefined) | 13.0 | 26.0
O=S(=O)(Nc1ccc(S(=O)(=O)C(F)F)cc1)C1=Cc2ccccc2CC1 | 12.0 | 4.0
FC(F)(F)c1ccc(N2CCOCC2)nc1 | 0.0 | -2.0
c1ccc(CCCNc2nnnn2-c2ccccc2)cc1 | 5.5 | 0.5
c1ccc(-n2cnnc2SCc2cn3ccccc3n2)cc1 | 4.5 | 4.5
COc1cc(/C=C/C(=O)O)ccc1OCC(=O)N1CCN(CC(=O)NC(C)(C)C)CC1 | 70.5 | 26.0
CC(=O)O/N=C1/SC(=Nc2ccc(Cl)cc2)C2=C1N(C)CC2 | -1.5 | -4.0
O=C(O)c1cccc(NC(=O)c2cn(-c3ccccc3)nc2-c2cc3ccccc3o2)c1 | 23.5 | 13.0
COC(=O)c1ccccc1S(=O)(=O)N1CCC(C(=O)OCN2C(=O)c3ccccc3C2=O)CC1 | 10.5 | -2.5
Cc1ccc(S(=O)(=O)N2CCN(C(=O)COC(=O)/C=C/c3ccc(C)o3)CC2)c(C)c1 | 9.0 | 1.0
CCN(c1ccccc1)S(=O)(=O)c1cc(C(=O)N2CCCN(C)CC2)ccc1C | 15.5 | 9.0
Cc1ccc(S(=O)(=O)NC(=O)NN2CCCCCC2)cc1 | 5.0 | 11.0
O=C(COC(=O)C1CC(=O)N(Cc2ccco2)C1)Nc1cccc2nsnc12 (centres undefined) | -2.5 | -3.5
COc1cc(-c2nnc(SCCSC)o2)cc(OC)c1OC | 8.5 | 1.0
N#CCCn1cc(C(=O)Cn2cc(C(F)(F)F)ccc2=O)c2ccccc21 | 1.0 | -6.5
CN(Cc1cccs1)C(=O)c1cccc(C#N)c1 | 5.0 | 0.5
CCC(=O)N(c1n[nH]c(=S)s1)C1CC1 | 104.5 | 94.0
COCCCn1c(C)cc(C(=O)CSc2ncnc3ccccc23)c1C | 14.0 | 10.0
CCn1c(SCC(=O)NCc2ccc(Cl)cc2)nnc1-c1ccccc1OC | -2.5 | -9.0
Cc1cc(C(=O)Cn2cnnc2C#N)c(C)n1-c1ccc(Br)cc1 | 5.0 | 13.5
CC(C)Cn1c(N)c(C(c2cccnc2)N2CCN(c3ccccc3)CC2)c(=O)[nH]c1=O (centres undefined) | 0.0 | 3.5
OC(COc1ccc(Cl)cc1)C(O)C(O)c1cnn(-c2ccccc2)n1 (centres undefined) | 20.5 | 18.5
O=C(Cc1n[nH]c(=O)c2ccccc12)OCCCCN1C(=O)c2ccccc2C1=O | 3.0 | 13.0
O=C(/C=C/c1ccc(Br)o1)OCCCn1c(=O)[nH]c2ccccc21 | -7.0 | -4.5
Clc1ccc(CSc2nnc(Cc3cccs3)n2C2CC2)cc1Cl | 19.0 | 5.0
O=C(C1CC(=O)N(c2ccc3c(c2)OCCO3)C1)N1CCCSC1=Nc1ccccc1 (centres undefined) | 14.0 | 10.5
O=C1c2cccc3cccc(c23)N1CN1CCCCC1 | 17.0 | 21.0
C=CCN1CC2=C(C1=O)C(c1ccccc1)NC(=O)N2 (centres undefined) | 1.5 | 2.5
CC(C)Cn1c(SCc2nnc(-c3cccs3)o2)nc(O)cc1=O | -3.5 | 5.5
Cc1ccc(CN2CNc3nnnn3C2)cc1 | -7.0 | -8.5
CCN(CC)c1cccc(Oc2ncnc3sccc23)c1 | 23.0 | 5.5
The listing continues.
SMILES | BmaI1 | BmaI1 counterscreen
CSCCC(N=C1NS(=O)(=O)c2ccccc21)C(=O)N1CCN(C(=O)c2ccco2)CC1 (centres undefined) | 4.0 | 7.5
O=C(O)c1sc2sccc2c1Cl | 8.5 | -1.5
O=C(N/N=C/c1sc(Nc2ccccc2)nc1Cl)C1CC1 | 16.0 | 5.5
Cc1cc(C(=O)COc2ncnc3sccc23)c(C)n1-c1ccccc1 | 10.0 | 12.0
O=C(Cc1cccc(C(F)(F)F)c1)Nc1nccs1 | 8.5 | -2.0
O=C(CCCc1c[nH]c2ccccc12)N1CCN(S(=O)(=O)Cc2ccccc2)CC1 | 2.0 | 0.0
O=C(c1cc(-c2ccccc2)nn1-c1ccccc1)N1CCC1 | 3.0 | 0.5
CO[C@@]1(NC(=O)Cc2cccs2)C(=O)N2C(C(=O)O)=C(COC(N)=O)CS[C@@H]21 | 3.5 | 12.0
O=c1[nH]nc(SCc2cc(Cl)cc3c2OCOC3)n1CC1CCCO1 (centres undefined) | 19.5 | 11.5
O=C(C1CNc2ccccc2O1)N1CCOCC1 (centres undefined) | 34.5 | -15.0
Cc1cc(NC(=O)COC(=O)C2CCCCC2)no1 | 13.0 | -2.5
O=C(CSc1nnc2ccccn12)NC(=O)Cc1ccccc1 | 12.0 | -1.0
N#CCC(=O)Nc1cccc2ncccc12 | 21.0 | 12.0
COCCn1c(N)c(C(=O)c2cccc(S(=O)(=O)N3CCCCCC3)c2)c(=O)[nH]c1=O | 3.0 | -2.5
Oc1ccc2c(c1)[nH]c1ccccc12 | 86.5 | 60.5
C#CC(=O)OCC(=O)Nc1ccc(C)c(C)c1 | 6.5 | 9.5
Cc1nnc(SC2CCOC2=O)n1C1CCCCC1 (centres undefined) | 8.5 | -15.5
Cc1cc(=O)oc2cc(OC(=O)c3cncc(Br)c3)ccc12 | 8.0 | -3.0
NCc1cccc(C(F)(F)F)c1 | -0.5 | -0.5
CC1CCN(C(=O)C2=NN(C3CCS(=O)(=O)C3)C(=O)CC2)CC1 (centres undefined) | 5.0 | 1.0
O=C(CSc1ncccn1)NC1CCCc2ccccc21 (centres undefined) | 8.5 | 13.0
CC1Cc2ccccc2N1S(=O)(=O)/C=C/c1ccccc1 (centres undefined) | 8.0 | 11.5
O=C(COC(=O)C1CC(=O)N(CCc2ccccc2)C1)c1ccc[nH]1 (centres undefined) | 10.5 | 2.0
CCN(CC)S(=O)(=O)c1ccc2nc(COC(=O)c3n[nH]c4ccccc34)[nH]c2c1 | 1.0 | 5.0
O=C1OCCC1Sc1nc2scc(C3CC3)c2c(=O)n1C1CCCCC1 (centres undefined) | 3.0 | -1.0

From PubChem BioAssay
